# PINK1 modulator: changes PINK1 expression | Potency, µM (doses to about 76.6 µM), for inactives: at the top dose activation (PINK1 increase), hits mostly activators | AID 624263 | PINK1 immunofluorescence, high-content cytometry, 24 h | 410,000 compounds, 0.2% hits; active = well fitted activation curve with a large enough effect; inconclusive = small, poorly fitted or top-dose-only effect; inactive = flat fitted curve, though single readings scatter; cell line not stated here;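 also: potency is read from the fitted curve at half-maximal effect; % of control where 0% means no effect; nearly all actives have a fitted effect of over 65% in size; a mitochondrial uncoupler was the plate control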
#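 Decision-based qHTS: stable cells, 24 h exposure to five compound concentrations, CCCP as control. Fixed cells stained for PINK1 plus nuclear, mitochondrial and cell markers, cytometer read.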
# Six1-Eya2 inh: Six1/Eya2 interaction inhibition | AlphaScreen GST-Six1/His-Eya2 binding, biochemical; stronger effect = lower value; control for the full effect not named in the record | Q15475+O00167 | activity change, % (concentration not given with the values) | 360,000 compounds, 0.56% hits; in the data active = activity change below about -65%; inconclusive = about -30% to -65%; inactive = above about -30%; also: % is scaled to controls: 0 for no effect and ±100 for the full control effect
# Target sequence (O00167 whole entry, looked up): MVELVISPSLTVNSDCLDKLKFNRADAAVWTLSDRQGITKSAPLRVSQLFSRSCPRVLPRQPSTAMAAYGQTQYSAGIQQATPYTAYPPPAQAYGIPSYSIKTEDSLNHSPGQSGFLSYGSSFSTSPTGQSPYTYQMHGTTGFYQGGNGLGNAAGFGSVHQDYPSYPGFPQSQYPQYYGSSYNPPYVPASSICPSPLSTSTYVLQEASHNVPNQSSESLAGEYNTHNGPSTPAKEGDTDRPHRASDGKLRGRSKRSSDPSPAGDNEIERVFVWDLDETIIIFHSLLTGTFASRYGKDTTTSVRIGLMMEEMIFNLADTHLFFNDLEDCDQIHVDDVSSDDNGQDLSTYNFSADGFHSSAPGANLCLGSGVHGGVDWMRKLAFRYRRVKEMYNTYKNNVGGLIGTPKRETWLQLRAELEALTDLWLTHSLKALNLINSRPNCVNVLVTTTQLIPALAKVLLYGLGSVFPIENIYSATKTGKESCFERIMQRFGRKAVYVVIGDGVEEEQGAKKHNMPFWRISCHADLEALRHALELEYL
# Target sequence (Q15475 whole entry, looked up): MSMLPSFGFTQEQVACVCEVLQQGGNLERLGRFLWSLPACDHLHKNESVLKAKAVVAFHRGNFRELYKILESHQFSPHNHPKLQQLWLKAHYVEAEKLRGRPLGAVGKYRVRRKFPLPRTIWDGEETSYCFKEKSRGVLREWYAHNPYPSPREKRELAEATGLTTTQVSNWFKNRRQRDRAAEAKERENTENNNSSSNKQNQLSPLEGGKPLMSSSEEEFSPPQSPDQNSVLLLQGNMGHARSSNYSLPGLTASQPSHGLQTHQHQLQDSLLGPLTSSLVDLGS
#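 GST-Six1 + His-Eya2 (5X stock: 250/500 nM); Tris pH 8.0, 300 mM NaCl, 0.05% BSA, 0.02% Tween 20; GSH donor/Ni acceptor beads; 1 h 37 °C dark; AlphaScreen readout.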
# TRPML1 blocker: inhibitors of human TRPML1 channel; activity change, negative = inhibition, % (no concentration beside the values); 390,000 compounds, 0.02% hits; Q9GZU1; TRPML1-inducible cells, Ca2+ dye fluorescence, FDSS; stronger effect = lower value; inhibition of EC80 agonist-evoked calcium signal; in the data active means activity change below about -50%; inconclusive means about -30% to -50%; inactive means above about -30%;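 also: stimulus is agonist 54-4 at its EC80 concentration; % is scaled to controls: 0 for no effect and ±100 for the full control effect; compound concentration not given in the record; the text of the record puts the active cut at -80%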
#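 Tet-induced TRPML1-DL cells loaded with Ca8 no-wash calcium dye were read kinetically on FDSS. Compound addition was followed by EC80 agonist 54-4 (4 uM final); inhibition was read over 110 s.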
# TRPML1 agonist: human mucolipin-1 channel agonism | 410,000 compounds, 0.12% hits | TRPML1-expressing cells, Ca2+ dye fluorescence, FDSS; host cell line not named in the record; reference of the full effect not given here | Q9GZU1 | activation, % (test concentration not listed); in the data active = activation above about 50%; inconclusive = about 30% to 50%; inactive = below about 30%; also: 0% is about no effect; the text of the record puts the active cut at 80%
#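 TRPML1-DL cells, Tet-induced overnight (~16 h, 37 degrees C), loaded 45-90 min at room temperature with Ca8 no-wash calcium dye plus quencher. FDSS fluorescence: 10 s baseline, compound pin-transfer, 110 s agonist read, then EC80 54-4 (4uM final) and 110 s antagonist read.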
# D2 PAM: positive allosteric modulators of human D2 dopamine receptor. DiscoveRx D2 beta-arrestin cells, luminescence, 90 min; 100% = 57 uM dopamine signal. potentiation, % (test concentration not listed). 360,000 compounds, 0.23% hits. AID 624464; active = potentiation of 50% or more; inconclusive = 30% to 50%; inactive = 30% or less;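 also: compound concentration not given in the record; tested on top of an EC20 dose of dopamine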
#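 D2 cells co-treated with compound plus 50 nM dopamine (EC20) for 90 min at 37 deg C to detect potentiation. Beta-arrestin recruitment was read as enzyme-fragment luminescence after 1 h at ambient temperature. Full response was set by 57 uM dopamine.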
# D2 agonist: agonists of human D2 dopamine receptor (beta-arrestin) | AID 624465 | 360,000 compounds, 0.084% hits | DiscoveRx PathHunter D2 beta-arrestin, luminescence, 90 min; 100% = 57 uM dopamine signal | activation, % (concentration not given with the values); in the data active = activation above about 40%; inconclusive = about 15% to 40%; inactive = below about 15%; also: the text of the record calls up to 30% inactive
#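 Agonist mode: compounds alone added to overnight-plated D2 PathHunter cells for 90 min at 37 C, with 57 uM final dopamine (EC100) defining full response. Beta-arrestin recruitment detected by chemiluminescent reagent, read after 1 h at ambient temperature.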
# Numbers without * were called inactive; ? = inconclusive; . = not tested or not shown; & = joins results of further samples; [ ] = remark or other dose.
SMILES,PINK1 modulator,Six1-Eya2 inh,TRPML1 blocker,TRPML1 agonist,D2 PAM,D2 agonist
NCc1oc(-c2ccccc2)cc1C(=O)O,1.7%,-4,30,1.2,0,4.0
CCC(CC)C(=O)Nc1ccc(C)c(O)c1,0.5%,2,2,-1.6,11,-4.6
O=C(O)CCN1C(=O)c2ccc(NC(=O)Cc3ccc(Cl)cc3)cc2C1=O,-0.3%,-1,2,-0.9,-9,2.1
O=C(O)c1ccc(S(=O)(=O)N(Cc2ccccc2)C2CCCCC2)cc1,-2.0%,1,11,1.5,-9,-1.4
CCn1c(=O)cc(O)c2c(=O)n(C)c(=O)n(C)c21,0.6%,4,16,0.0,1,-2.6
O=C(NC1CCC(CC2CCC(NC(=O)C(Cl)Cl)CC2)CC1)C(Cl)Cl (configuration not stated),0.6%,3,14,-0.3,-5,-2.1
CC(=O)Nc1ccc(N(C(=O)c2ccco2)C(C(=O)NC2CCCC2)c2ccc(N(C)C)cc2)cc1 (configuration not stated),4.3%,1,-24,-0.4,-1,1.1
O=C(COc1ccc(Cl)cc1)NNC(=O)c1ccncc1,-1.8%,6,-15,-0.2,-3,3.2
C[N+]1(C2CCC3CCCC2C3O)CCCCC1 (configuration not stated),1.9%,-4,5,-0.5,-5,0.2
O=C(N/C(=C/c1cccnc1)C(=O)N1CCOCC1)c1ccco1,2.6%,6,3,0.3,-10,2.8
CCC(C)N1C(=O)CCC1C(=O)NCCc1ccc(Cl)cc1 (configuration not stated),0.2%,10,2,-0.4,-5,0.7
Cc1cc(C(=O)CCC(=O)Nc2ccc(C(N)=O)cc2)c(C)s1,0.9%,7,1,-0.5,-5,-1.8
CN1CCC(N(C)S(=O)(=O)c2ccc(NC(=O)Cc3ccc(F)cc3)cc2)CC1,-0.4%,-2,-6,-0.1,-3,0.8
COc1ccccc1C(=O)NCCC(=O)NCC1COc2ccccc2O1 (configuration not stated),0.0%,11,-4,0.2,-11,-3.9
N/C(=N\OC(=O)c1cc(Cl)ccc1Cl)c1cccnc1,5.3%,8,9,6.7,73*,?
CCc1cccc2c1NC(=O)C2(O)CC(=O)c1cccs1 (configuration not stated),-1.0%,1,-6,-0.3,-2,-5.2
CCOC(=O)c1ccccc1NC(=S)N1CCC(N2CCCCC2)CC1,-2.6%,16,-6,0.2,-7,-2.2
CCc1nnc(NC(=O)c2ccc(S(=O)(=O)N(CC)CC)cc2)s1,3.7%,0,54,0.6,-6,-2.6
COc1ccc(Cl)cc1/C=N/NC(=O)c1c(-c2ccccc2)noc1C,-1.2%,-6,3,1.1,-10,-2.5
CCN(CC)S(=O)(=O)c1ccc(NC(=O)COC(=O)c2cnc(C)cn2)cc1,2.9%,-8,46,0.0,-1,4.1

# An excerpt from further up, for reference:
SMILES,PINK1 modulator,Six1-Eya2 inh,TRPML1 blocker,TRPML1 agonist,D2 PAM,D2 agonist
NCc1oc(-c2ccccc2)cc1C(=O)O,1.7%,-4,30,1.2,0,4.0
CCC(CC)C(=O)Nc1ccc(C)c(O)c1,0.5%,2,2,-1.6,11,-4.6
O=C(O)CCN1C(=O)c2ccc(NC(=O)Cc3ccc(Cl)cc3)cc2C1=O,-0.3%,-1,2,-0.9,-9,2.1
O=C(O)c1ccc(S(=O)(=O)N(Cc2ccccc2)C2CCCCC2)cc1,-2.0%,1,11,1.5,-9,-1.4
CCn1c(=O)cc(O)c2c(=O)n(C)c(=O)n(C)c21,0.6%,4,16,0.0,1,-2.6
O=C(NC1CCC(CC2CCC(NC(=O)C(Cl)Cl)CC2)CC1)C(Cl)Cl (configuration not stated),0.6%,3,14,-0.3,-5,-2.1
CC(=O)Nc1ccc(N(C(=O)c2ccco2)C(C(=O)NC2CCCC2)c2ccc(N(C)C)cc2)cc1 (configuration not stated),4.3%,1,-24,-0.4,-1,1.1

# The results go on.
SMILES,PINK1 modulator,Six1-Eya2 inh,TRPML1 blocker,TRPML1 agonist,D2 PAM,D2 agonist
CC(=O)N/C(=N/c1nc(C)cc(C)n1)Nc1cc(C)cc(C)c1,9.5%,4,8,1.9,2,5.8
Cc1cccc(OCC(=O)Nc2nnc(S(=O)(=O)N3CCCCCC3)s2)c1,2.2%&-0.5%,-1,3&-3,-1.5&0.5,-1,-2.6
O=C(COC(=O)c1ccc(Br)o1)Nc1cccc(S(=O)(=O)N2CCCCC2)c1,1.4%,-11,19,1.3,-5,9.1
Cc1cccc(OCc2nc(-c3nonc3N)no2)c1C,1.7%[38.3 µM],23,-4,1.0,-4,-0.9
COc1cc(Nc2cc(C)nc3ncnn23)cc(OC)c1,7.0%,0,2,0.3,-5,4.1
Cc1cc(C)cc(N(CC(=O)Nc2c(C)n(C)n(-c3ccccc3)c2=O)S(C)(=O)=O)c1,-2.0%,0,-1,2.9,-8,-0.9
COc1ccc(/C=C/C(=O)Oc2ccc(/C=N\NC(=O)c3ccc(F)cc3)cc2)cc1,0.4%,-13,7,-0.2,-11,-1.4
CCOc1ccc2nc(SCc3ccc(C(=O)OC)o3)[nH]c2c1,4.4%,-8,1,0.1,-3,-3.5
Cc1cc(NC(=O)c2ccccc2)ccc1NC(=O)c1ccccc1Cl,2.6%,0,4,0.1,3,-5.0
CCCCN1C(=O)C(=O)N(CC(=O)N2CCc3ccccc32)C1=O,5.9%,-3,1,-0.1,-13,-5.7
Cc1noc(C)c1C(=O)N(C)Cc1ccccc1,1.5%,-2,-12,0.2,-11,6.7
Cc1c(Cl)cccc1NC(=O)CNc1ccccc1F,-2.2%,8,2,2.2,-8,-0.6
CC1CN(C(=O)CCC(=O)NCc2cccnc2)c2ccccc2O1 (configuration not stated),-0.1%,23,-3,0.2,-5,3.4
CC1=C(C(=O)Nc2ccc(C)cc2C)C(c2ccc(Br)cc2)n2ncc(C(=O)Nc3cccc(C)c3)c2N1 (configuration not stated),2.5%,.,3,2.2,.,.
CC(C)c1ccccc1NC(=O)COC(=O)CNC(=O)c1ccc(Br)cc1,-1.5%,0,0,-1.0,0,-4.1
O=C(NCc1ccccc1)C(=O)NCC(c1cccnc1)N1CCN(c2ccccc2)CC1 (configuration not stated),0.2%,.,29,1.2,.,.
COC(=O)c1ccc(C(=O)N(C)C2CCCN(Cc3ccccc3F)C2)cc1 (configuration not stated),0.5%,-1,15,0.3,0,-4.0
CCOC(=O)C1=C(N)Oc2ccc3ccccc3c2C1c1cccnc1 (configuration not stated),0.0%,0,14,2.7,24,1.1
CC(NC(=O)CSc1n[nH]c(-c2ccccc2Cl)n1)c1nc2ccccc2[nH]1 (configuration not stated),0.8%,.,-11,0.2,.,.
Cc1cc(C)c(NC(=O)/C=C\C(=O)O)c(Cl)c1,-1.0%,10,28,0.9,1,-3.8
Cc1csc(=O)n1CC(=O)OCC(=O)NCc1ccc(F)cc1,2.4%,2,-4,-0.8,-2,-1.1
COc1ccccc1N1CCN(C(=O)c2cc(C)on2)CC1,-0.3%,14,-4,1.4,0,0.5
O=S(=O)(Nc1nc2ccccc2nc1Nc1ccc(N2CCOCC2)cc1)c1cc(Cl)ccc1Cl,5.2%,5,2,2.5,-1,-4.8
CCCNC(=O)C1(C)CCN(Cc2ccc3ccccc3c2Br)C1 (configuration not stated),0.2%,3,24,-0.4,-15,-1.2
O=C(Cc1ccsc1)N1CCN(S(=O)(=O)c2cc(C(F)(F)F)cc(C(F)(F)F)c2)CC1,-1.0%,10,2,-0.9,0,0.7
Cc1ccc2cc(-c3noc(C4CCCO4)n3)c(=O)[nH]c2c1 (configuration not stated),0.4%,3,54,-0.3,-1,-2.3
O=C(NC1CCCC1)C(c1ccco1)N(Cc1ccccc1)C(=O)c1csnn1 (configuration not stated),-16%[38.3 µM],0,-1,-1.0,-3,-4.9
C#CCN1C=CC(=O)[C@@H](OC(=O)Nc2ccc(OC)cc2)[C@H]1c1ccccc1Br,-0.5%,-23,-14,0.7,-5,3.2
COc1ccc(C2C(C(=O)N3CCN(C)CC3)c3cc(OC)c(OC)cc3C(=O)N2C)cc1 (configuration not stated),4.5%,8,26,0.8,4,-1.4
Cc1cc(C)nc(NC(=S)Nc2ccc(F)cc2F)c1,-0.3%,-2,-9,0.7,-4,4.7
NC(=O)c1ccccc1NS(=O)(=O)c1ccc(F)cc1,1.7%,2,19,-1.3,1,-3.1
COc1ccc(C(CCNC(C)c2ccccc2)c2ccc(F)cc2)cc1 (configuration not stated),-1.5%,18,-12,-0.2,-27,-2.2
CCc1cc2c(N3CCN(C(=O)c4ccco4)CC3)ncnc2s1,0.2%,-12,7,0.4,4,3.8
COc1ccccc1CNC(=O)C(=O)NCC1CCCN1S(=O)(=O)c1cc(C)ccc1C (configuration not stated),0.8%,1,-2,-0.5,-12,-0.7
Cc1cccc(C)c1NC(=O)CN(C)C(=O)CN1C(=O)NC(C)(C)C1=O,2.7%,6,2,0.2,1,2.2
Cc1ccc(-n2c(SCC(=O)Nc3cccc(S(N)(=O)=O)c3)nc3ccccc32)cc1,1.1%,-7,?,0.2,10,11
COc1ccc(CNC(=O)c2ccc(CN3C(=O)C(C)=C(c4ccc(C)cc4)S3(=O)=O)cc2)cc1,1.1%,.,48,2.4,.,.
CCOC(=O)c1c(CC(C)C)csc1NC(=O)COC(=O)C1=NNC(=O)CC1,8.7%,2,3,2.1,0,1.4
CCCCNC(=O)CCC(=O)NNc1nc2ccccc2c2nc(-c3ccccc3)nn12,1.5%&9.3%,-10,3&-20,-0.5&-0.6,-2,-4.3
O=C(Cc1ccccc1)Nc1ccc(N2CCN(Cc3ccccc3F)CC2)cc1,21%[38.3 µM],-2,4,-0.8,2,2.4
O=CNc1cc2c(cc1Br)-c1ccccc1C2O (configuration not stated),0.3%,-29,7,0.6,-5,0.9
CCC(=O)NC(=S)Nc1ccc(NC(=S)NC(=O)c2ccccc2)cc1,7.4%,4,31,1.3,0,-0.8
COc1cc(OC)cc(C(=O)N2CCN(C(=O)c3cccc(F)c3)CC2)c1,-2.1%,6,-7,-0.3,6,0.8
COC(=O)CN(c1ccc(OC)c(OC)c1)S(C)(=O)=O,-1.3%,7,16,-0.4,-2,-1.8
Cc1ccc2nc(N3CCC(C(=O)O)CC3)nc(-c3ccccc3)c2c1,-0.3%,8,-4,1.6,-1,-4.1
CCN(CC)CCNC(=O)CNC(=S)N(CCCN1CCOCC1)Cc1cccs1,-0.1%,4,-21,0.9,-18,-1.5
Cc1cccc(Cn2nc(-n3cccc3)c3c(C)cc(C)nc32)c1,4.4%,4,3,5.0,-4,-3.5
Cc1ccc(S(=O)(=O)N(CC(=O)NC2CCCCCC2)c2ccccc2F)cc1,2.6%[38.3 µM],0,11,1.6,-10,-0.2
CC1(C)OC(c2ccccc2)=C/C(=C/C=N/NC(=O)c2ccncc2)O1,3.0%,-5,3,1.0,-3,-0.1
Cc1ccc(OCC(=O)Nc2cccc(S(=O)(=O)N3CCCCC3)c2)c([N+](=O)[O-])n1,-0.1%,-12,6,0.2,-1,3.7
CCOc1ccc(CNn2cnnc2)cc1,-1.4%,3,17,-0.6,6,3.7
COc1ccc(-c2nsc(NC(=O)c3ccccc3Br)n2)cc1,4.3%,.,-1,1.8,.,.

# Outcome played no part in choosing rows; about 1% have a hit in one of these screens.
